# RE007 growth inh – less growth of the S. pombe RE007 Vpr strain. S. pombe RE007 Vpr strain, BacTiter-Glo ATP luminescence, 24 h; control for the full effect not named in the record. Potency, µM (titrated, usually from 92.2 µM), for inactives: top-dose activity change, negative = less growth. 0.21% of 360,000 active; active = well fitted falling curve with a large enough effect; inconclusive = small, poorly fitted or top-dose-only effect; inactive = no such curve, though single readings can be large or run the other way;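 also: % is scaled to controls: 0 for no effect and ±100 for the full control effect; nearly all actives have a fitted effect of over 50% in size; the assay follows cell death caused by Vpr and the record does not say whether a fall means rescue or toxicity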
#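 Fission yeast RE007 carrying one integrated HIV-1 vpr copy, seeded at OD 0.01 in PMG+AL medium with 23 nL pinned compound. Grown 24 h at 30 degrees; viability read by BacTiter-Glo luminescence after 5 min.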
# SARS PLP yeast – inhibitors of SARS-CoV papain-like protease in yeast; 0.19% of 330,000 active; Potency, µM (highest dose often 32.9 µM), for the others: at the highest dose activity, positive = growth rescue; S. cerevisiae expressing SARS-CoV PLpro, growth rescue; control for the full effect not named in the record; active means well fitted rising curve with a large enough effect; inconclusive means small, poorly fitted or top-dose-only effect; inactive means no such curve, though single readings can be large or run the other way; also: 0% is about no effect; nearly all actives have a fitted effect of over 55% in size; growth read by luminescence after 48 h
# StopGo reporter – FMDV 2A StopGo reporter, luciferase signal; human cells with a luciferase reporter of 2A StopGo recoding; control for the full effect not named in the record; Potency, µM (titrated, usually from 57.9 µM), for the others: at the top dose signal change, negative = less light; 1.2% of 410,000 active; AID 1159524; active = well fitted falling curve with a large enough effect; inconclusive = small, poorly fitted or top-dose-only effect; inactive = no such curve, though single readings can be large or run the other way; tested in HEK293T cells; also: % is scaled to controls: 0 for no effect and ±100 for the full control effect; nearly all actives have a fitted effect of over 45% in size; luciferase light after 4 h
# * hit, by the source's call; ? = inconclusive; [ ] = remark or other dose. Potency is read from the fitted curve at half-maximal effect. These rows are one share of the data; the hit share may differ from the screen's.
# Start of the data: the first 7 entries as a preview:
SMILES,RE007 growth inh,SARS PLP yeast,StopGo reporter
Cc1ccc(S(=O)(=O)N2CCN(C(=O)COC(=O)COc3cccc(C(F)(F)F)c3)CC2)c(C)c1,4%,-1%,-5%
Cc1ccc(C(=O)N/N=C\C=C\c2ccc(Br)cc2)cn1,5%,-2%,10%
COc1ccc(-c2c(-c3cc(OC)cc(OC)c3)n(C)c3ccc(Br)cc23)cc1,5%,-1%,-26%
O=C(NCC(c1ccco1)N1CCCC1)c1cccc(S(=O)(=O)Nc2ccc(F)cc2)c1 (stereo not drawn),5%,-7%,9%
COc1ccc(CCNC(=O)CN2c3cccc4cccc(c34)S2(=O)=O)cc1,-3%,1%,-1%
COc1ccc(-c2coc3cc(O[C@@H]4O[C@H](CO)[C@@H](O)[C@H](O)[C@H]4O)c(OC)cc3c2=O)cc1,-9%,-2%,59%[activator]
C[C@@H]1COC(=O)[C@H](CC(=O)OC(C)(C)C)C/C=C\C[C@@H](CC(=O)N[C@H](CO)Cc2ccccc2)C(=O)N1,0%,5%,55%[activator]

# This part in full, from the start:
SMILES,RE007 growth inh,SARS PLP yeast,StopGo reporter
Cc1ccc(S(=O)(=O)N2CCN(C(=O)COC(=O)COc3cccc(C(F)(F)F)c3)CC2)c(C)c1,4%,-1%,-5%
Cc1ccc(C(=O)N/N=C\C=C\c2ccc(Br)cc2)cn1,5%,-2%,10%
COc1ccc(-c2c(-c3cc(OC)cc(OC)c3)n(C)c3ccc(Br)cc23)cc1,5%,-1%,-26%
O=C(NCC(c1ccco1)N1CCCC1)c1cccc(S(=O)(=O)Nc2ccc(F)cc2)c1 (stereo not drawn),5%,-7%,9%
COc1ccc(CCNC(=O)CN2c3cccc4cccc(c34)S2(=O)=O)cc1,-3%,1%,-1%
COc1ccc(-c2coc3cc(O[C@@H]4O[C@H](CO)[C@@H](O)[C@H](O)[C@H]4O)c(OC)cc3c2=O)cc1,-9%,-2%,59%[activator]
C[C@@H]1COC(=O)[C@H](CC(=O)OC(C)(C)C)C/C=C\C[C@@H](CC(=O)N[C@H](CO)Cc2ccccc2)C(=O)N1,0%,5%,55%[activator]
O=c1c2ccccc2nnn1CSc1nnnn1-c1ccc(O)cc1,2%,1%,13%
Cc1ccc(Nc2cc(=O)[nH]c(=O)[nH]2)cc1Cl,7%,0%,-1%
COc1ccc(S(=O)(=O)N(C)C[C@H]2Oc3ccc(NC(=O)Nc4ccccc4)cc3C(=O)N([C@H](C)CO)C[C@@H]2C)cc1,24%,4%,-24%
O=C(CN1C(=O)C(=O)N(Cc2ccco2)C1=O)NC1CCCCC1,-8%,0%,-5%
COc1ccc(C(=O)NC(C(=O)NCCc2ccc3c(c2)OCCO3)C(C)C)cc1 (stereo not drawn),-23%,-4%,6%
CCN1CCC2(CC1)NC(=O)c1ccccc1O2,6%,5%,3%
CCN(CC)C(=O)N1CCN(c2c([N+](=O)[O-])c(=O)oc3ccccc23)CC1,-10%,0%,-10%
Cc1ccc(S(=O)(=O)NCC(=O)OCC(=O)Nc2cccc(S(=O)(=O)N3CCOCC3)c2)cc1,-7%,5%,-7%
O=C(COc1ccc(Cl)cc1)NCc1nnc(SCC(=O)NCC2CCCO2)o1 (stereo not drawn),15%,-2%,1%
COc1ccc(N2CCN(C(=O)CN3c4cccc5cccc(c45)S3(=O)=O)CC2)cc1,7%,3%,?
CCN(CC)c1ccc(S(=O)(=O)N2CCOCC2)cc1NC(=O)CSc1nncn1C,-2%,3%,-18%
Cc1ccc(C2=CC(=O)CC(C)(C)C2)cc1,6%,0%,24%
Cc1nnc(SCC(=O)NC2CCCC2)n1-c1ccccc1,-4%,-3%,-8%
COc1ccc(C)cc1NC(=O)COC(=O)c1ccc2c(c1)OCO2,14%,-1%,-25%
CN(C)C(CNC(=O)c1cc2ccccc2o1)c1ccco1 (stereo not drawn),15%,-7%,1%
O=C(CN(Cc1ccco1)C(=O)c1ccc([N+](=O)[O-])cc1)Nc1ccccc1C(F)(F)F,4%,0%,-5%
N#Cc1ccc(OCC(=O)NCC2COc3ccccc3O2)cc1 (stereo not drawn),-7%,3%,-6%
O=C(C[C@@H]1C/C=C\CCC(=O)OC[C@H](Cc2ccccc2)NC1=O)N[C@@H](CO)Cc1ccccc1,5%,1%,-15%
# Additional structures.
SMILES,RE007 growth inh,SARS PLP yeast,StopGo reporter
O=C(CCl)Nc1ccccc1C(=O)c1ccccc1,-8%,3%,?
CN(CC(=O)NCC(=O)Nc1ccc(F)c(F)c1F)C1CCS(=O)(=O)C1 (stereo not drawn),-8%,-5%,-21%
CCOC(=O)CCn1cnc2ccc([N+](=O)[O-])cc2c1=O,0%,0%,5%
C[C@H](CO)N1C[C@H](C)[C@@H](CN(C)S(=O)(=O)c2ccccc2)Oc2c(NC(=O)Nc3ccc4c(c3)OCO4)cccc2C1=O,-6%,1%,7%
Cc1ccc(NC(=O)CSCC(=O)NC2(C)CCS(=O)(=O)C2)cc1 (stereo not drawn),4%,2%,-5%
COc1ccc(S(=O)(=O)Nc2ccc(-n3cnnn3)cc2)cc1[N+](=O)[O-],8%,-3%,26%
C(=C\n1nnc2ccccc21)/c1ccc[nH]1,-11%,-3%,40%[activator]
C=CCNC(=S)N/N=C/c1ccc(C(F)(F)F)cc1,-9%,12%,?
O=C(CSCc1ccc(F)cc1)Nc1ccc(N2CCOCC2)cc1N1CCOCC1,2%,8%,-11%
NS(=O)(=O)c1cccc(NC(=O)CSc2n[nH]c(-c3cccs3)n2)c1,-14%,2%,7%
CCCCCCN(C(=O)CCCCCN1C(=O)NC(c2ccc([N+](=O)[O-])cc2)C(C(=O)OCc2ccccc2)=C1C)C(C(=O)NCCCC)C1CCCCC1 (stereo not drawn),4%,1%,-9%
CN(CC(=O)Nc1ccc(Cl)c(C(F)(F)F)c1)C(=O)CCC(=O)c1ccccc1,-5%,-2%,?
CN(C(=O)OC(C)(C)C)[C@H](Cc1ccccc1)C(=O)N[C@H]1CCCCNC1=O,-5%,1%,-14%
C/C(N)=C(/C#N)C(=O)COC(=O)[C@@H](NC(=O)c1ccccc1Cl)C(C)C,13%,0%,-6%
CN(C)S(=O)(=O)c1ccc(C(=O)Nc2ccccc2C(=O)NCCCN2CCOCC2)cc1,11%,-3%,-12%
O=C(Nc1ccccc1N1CCOCC1)c1ccncc1,-4%,5%,-4%
CS(=O)(=O)c1ccc(C(=O)Nc2cc(-c3ccccc3)nn2-c2ccccc2)cc1,5%,2%,-9%
NC(=O)C1Cc2ccccc2CN1C(=O)c1nn(Cc2ccccc2)c(=O)c2ccccc12 (stereo not drawn),6%,2%,-13%
Cc1ccc(C)c(CNc2ccc(S(=O)(=O)N3CCCCC3)cc2)c1,20%,1%,?
C[C@H]1CN([C@@H](C)CO)C(=O)c2cccc(NS(=O)(=O)c3cn(C)cn3)c2O[C@H]1CN(C)S(C)(=O)=O,-3%,-8%,-15%
Cc1ccc([C@H]2C(C(=O)O)=CC[C@@H](c3ccc(Cl)c(Cl)c3)N2S(=O)(=O)c2ccc(C)cc2)cc1,-6%,-10%,-9%
Cc1cccc(CCN2C(Nc3ccccc3)=NC[C@@H]2CC(C)C)c1,-14%,0%,?
O=c1[nH][nH]cc1C=NCc1cccnc1,2%,1%,4%
O=C(Cc1cccs1)NCc1cccc(F)c1,-22%,-2%,17%
COc1cccc([C@@H]2CC=C(C(=O)O)CN2S(=O)(=O)c2ccc(C)cc2)c1,-4%,5%,16%
# New compounds follow.
SMILES,RE007 growth inh,SARS PLP yeast,StopGo reporter
C/C(=N\NC(=O)c1cccc(S(=O)(=O)N2CCOCC2)c1)c1ccc(C)cc1,8%,-10%,-10%
COC(=O)[C@]1(C)CCC[C@@]2(C)C3CC[C@@]4(C)C[C@]3(CCC21)CC(=O)N4C (stereo partly drawn),23%,1%,?
Oc1c(N=NC(=S)Nc2ccccc2F)c2ccccc2n1Cc1ccccc1F,17%,1%,-11%
Cc1noc(C)c1S(=O)(=O)Nc1ccc2c(c1)C(=O)N([C@H](C)CO)C[C@H](C)[C@@H](CN(C)C(=O)NC(C)C)O2,-3%,2%,-1%
C#CCOCCOCCOCCNc1nc(N2CCN(C(=O)Cn3cc(CCCCN)nn3)CC2)nc(N2CCN(C(=O)[C@H](CCCCN)n3cc(CCCC)nn3)CC2)n1,4%,-4%,-12%
Cc1c(Cl)c([N+](=O)[O-])nn1CCCC(=O)Nc1c(C)n(C)n(-c2ccccc2)c1=O,-8%,0%,-15%
CN1CCN(S(=O)(=O)c2ccc(C(F)(F)F)cc2)C(c2ccccc2)C1 (stereo not drawn),-4%,-3%,-18%
Cc1ccsc1C(=O)OCC(=O)c1cc(C)n(C)c1C,-14%,-1%,?
COc1ccc(-n2nnnc2SCC(=O)NCCc2ccccc2)cc1OC,-5%,0%,-8%
O=C(O)c1cccc(NC(=S)N/N=C/c2ccccn2)c1,5%,5µM*,?
CC(C)c1cccc(C2=CC(=O)C[C@H](c3ccc(F)cc3)C2)c1,-10%,0%,-15%
CCN(C(=O)CSc1nc2ccc(C)cc2[nH]1)C1CCS(=O)(=O)C1 (stereo not drawn),-3%,-1%,7%
COc1ccc([C@H]2CC(=O)C=C(/C=C/c3ccc(Cl)cc3)C2)cc1,-2%,2%,33%[activator]
CCCCCCSc1ccc([C@H]2N[C@@](CC(C)C)(C(=O)OC)[C@H]3C(=O)N(CC)C(=O)[C@@H]23)cc1,14%,3%,?
CC(OC(=O)c1ccccc1)C(=O)NCc1ccco1 (stereo not drawn),-5%,7%,-5%
CCN(CC)c1ccc(C(=O)NNC(=O)c2ccc3c(=O)n4c(nc3c2)CCC4)cc1,2%,-2%,0%
CN(C)S(=O)(=O)c1ccc2nnn(OCC(=O)NC3CCS(=O)(=O)C3)c2c1 (stereo not drawn),4%,-9%,-7%
O=C(COC(=O)c1cn(-c2ccccc2)nc1-c1cccnc1)NC1CC1,7%,1%,-11%
CC(C)C[C@H]1CN=C(N(C)C)N1CCCCc1ccccc1,-7%,6.3µM*,?
Cn1nc(C(=O)OCC(=O)Nc2ccccc2[N+](=O)[O-])c2ccccc2c1=O,-8%,0%,-17%
CC(C)(C)c1nc(-c2ccccc2)nc2c1OCCC2,-25%,-20%,-13%
CN(CC(=O)Nc1ccc(OC(F)F)cc1)S(=O)(=O)/C=C/c1ccccc1,3%,3%,-14%

# Among those listed so far, these have bromine.
SMILES,RE007 growth inh,SARS PLP yeast,StopGo reporter
Cc1ccc(C(=O)N/N=C\C=C\c2ccc(Br)cc2)cn1,5%,-2%,10%
COc1ccc(-c2c(-c3cc(OC)cc(OC)c3)n(C)c3ccc(Br)cc23)cc1,5%,-1%,-26%

# Bioassay records from PubChem BioAssay.
